Bioassay records (PubChem)
NS1 function inh: influenza NS1 inhibition | S. cerevisiae slowed by influenza A NS1, growth recovery by OD600 | Potency, µM (highest dose often 46.1 µM), inactives show at the top dose activity, positive = more growth | 0.4% of 270,000 active; active means well fitted rising curve with a large enough effect; inconclusive means small, poorly fitted or top-dose-only effect; inactive means no such curve, though single readings can be large or run the other way; further: nearly all actives have a fitted effect of over 50% in size
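Read-out: OD600 growth recovery of NS1-expressing budding yeast. Cells grown overnight at 30C in -URA glucose medium, washed, resuspended and diluted 1:100 in 2% galactose assay medium, pH 6.0. Same strain lacking NS1 served as positive control.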
Lassa entry inh: inhibitors of Lassa virus binding or cell entry. Lassa virus pseudotype entry inhibition, cell reporter; control for the full effect not named in the record. Potency, µM (titrated, usually from 37.9 µM), for inactives: at the highest dose activity change, negative = inhibition, hits mostly inhibitors. 1.2% of 300,000 active. AID 540256; active means well fitted inhibition curve with a large enough effect; inconclusive means small, poorly fitted or top-dose-only effect, or effect the other way; inactive means flat fitted curve, though single readings scatter; tested in HEK293 cells; further: on the % scale 0 is the no-effect control and ±100 the full control effect; nearly all actives have a fitted effect of over 50% in size; luciferase read-out
SARS PLP yeast: inhibitors of SARS-CoV papain-like protease in yeast. Potency, µM (highest dose often 32.9 µM), for the others: top-dose activity, positive = growth rescue. AID 485353. 0.19% of 330,000 active. S. cerevisiae expressing SARS-CoV PLpro, growth rescue; control for the full effect not named in the record; active means well fitted rising curve with a large enough effect; inconclusive means small, poorly fitted or top-dose-only effect; inactive means no such curve, though single readings can be large or run the other way; further: 0% is about no effect; nearly all actives have a fitted effect of over 55% in size; growth read by luminescence after 48 h
RE007 growth inh: less growth of the S. pombe RE007 Vpr strain; S. pombe RE007 Vpr strain, BacTiter-Glo ATP luminescence, 24 h; control for the full effect not named in the record; AID 651644; Potency, µM (doses to about 92.2 µM), inactives show top-dose activity change, negative = less growth; 0.21% of 360,000 active; active = well fitted falling curve with a large enough effect; inconclusive = small, poorly fitted or top-dose-only effect; inactive = no such curve, though single readings can be large or run the other way;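 further: on the % scale 0 is the no-effect control and ±100 the full control effect; nearly all actives have a fitted effect of over 50% in size; the assay follows cell death caused by Vpr and the record does not say whether a fall means rescue or toxicity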
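Fission yeast RE007 carrying one integrated HIV-1 vpr copy, seeded at OD 0.01 in PMG+AL medium with 23 nL pinned compound. Grown 24 h at 30 degrees; viability read by BacTiter-Glo luminescence after 5 min.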
Cruzain inh Det: cruzain (T. cruzi) inhibition with detergent | 0.43% of 200,000 active | AID 1478 | P25779 | purified cruzain, Z-FR-AMC fluorescence, 0.01% Triton | Potency, µM, without a hit: max response, negative = inhibition, hits mostly inhibitors;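 further: plate controls were neutral wells for no effect and buffer without enzyme for full effect; nearly all actives have a fitted effect of over 40% in size; top concentration of the series not given in the record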
Target sequence (P25779 123-467 limits assumed): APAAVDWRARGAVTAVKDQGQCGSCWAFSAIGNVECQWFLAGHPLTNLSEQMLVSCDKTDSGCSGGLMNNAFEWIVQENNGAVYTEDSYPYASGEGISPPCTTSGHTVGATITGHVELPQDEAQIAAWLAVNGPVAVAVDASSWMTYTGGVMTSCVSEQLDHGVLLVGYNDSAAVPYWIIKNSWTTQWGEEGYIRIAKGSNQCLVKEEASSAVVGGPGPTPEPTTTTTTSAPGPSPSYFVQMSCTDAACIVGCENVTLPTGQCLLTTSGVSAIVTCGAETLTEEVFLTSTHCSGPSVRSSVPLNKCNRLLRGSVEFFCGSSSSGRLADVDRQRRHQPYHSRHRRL
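Sodium acetate buffer (100 mM, pH 5.5) containing 5 mM DTT and 0.01% Triton X-100 hosted 1.5 nM cruzain and test compound for 15 min at room temperature. Cleavage of 2 uM Z-FR-AMC was then tracked by fluorescence.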
2A StopGo: FMDV 2A StopGo reporter, luciferase signal; human cells with a luciferase reporter of 2A StopGo recoding; control for the full effect not named in the record; Potency, µM (series often up to 57.9 µM), inactives show at the top dose signal change, negative = less light; 1.2% of 410,000 active; AID 1159524; active = well fitted falling curve with a large enough effect; inconclusive = small, poorly fitted or top-dose-only effect; inactive = no such curve, though single readings can be large or run the other way; tested in HEK293T cells; further: on the % scale 0 is the no-effect control and ±100 the full control effect; nearly all actives have a fitted effect of over 45% in size; luciferase light after 4 h
Cruzain inh noDet: cruzain (T. cruzi) inhibition without detergent; Potency, µM, inactives show max response, negative = inhibition, actives largely listed as inhibitors; 2.3% of 200,000 active; purified cruzain, Z-FR-AMC fluorescence, no detergent; P25779;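 further: plate controls were enzyme without inhibitor for no effect and buffer without enzyme for full effect; nearly all actives have a fitted effect of over 40% in size; top concentration of the series not given in the record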
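Detergent-free condition (0.00005% Triton X-100) in acetate buffer pH 5.5 with DTT. 1.5 nM enzyme and compound were pre-mixed 15 min, then 2 uM Z-FR-AMC substrate added; reaction progress from fluorescence change between first and third reads (60 s).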
Marburg entry inh: blocks Marburg virus binding to or entry into cells. Potency, µM (top dose mostly 37.8 µM), inactives show top-dose activity change, negative = inhibition, most hits filed as inhibitors. AID 540276. Marburg virus pseudotyped entry inhibition, cell reporter; control for the full effect not named in the record; about a third of the inactives were read at about 46 µM. 1.8% of 300,000 active; active = well fitted inhibition curve with a large enough effect; inconclusive = small, poorly fitted or top-dose-only effect, or effect the other way; inactive = flat fitted curve, though single readings scatter; tested in HEK293 cells; about a fifth of its hits are not listed in these tables; further: on the % scale 0 is the no-effect control and ±100 the full control effect; luciferase read-out
Active calls of the source: *; u = inconclusive; x = no result given; & = joins results of further samples; [ ] = dose if it differs, or a comment. Unless noted, the call rests on the fitted dose curve; in most records, active means well fitted curve in the direction sought with a large enough effect; inconclusive means small, poorly fitted or top-dose-only effect, or another doubt; inactive means no such curve, though single readings can be large; an effect the other way counts as inactive or inconclusive. Potency means the concentration at half of the fitted maximal effect.

Screens in order: NS1 function inh	Lassa entry inh	SARS PLP yeast	RE007 growth inh	Cruzain inh Det	2A StopGo	Cruzain inh noDet	Marburg entry inh
- CCOc1ccc(C(=O)NC(=S)Nc2ccccc2N2CCOCC2)cc1Br
→ 26%	u	-13%	9%	-3.5%	-30%	16µM*	u
- CSc1ccccc1NS(=O)(=O)c1cccc2nonc12
→ 19%	x	2%	-3%	x	-3%	x	x
- COc1ccc(Nc2nc(Nc3ccc(OC)cc3)nc(-n3[nH]c(=O)c(C)c3C)n2)cc1
→ 23%	-16%	2%	4%	-1.0%	-17%	18%	u
- COC(=O)c1ccc(-c2nc3ccccc3o2)cc1
→ -27%	x	-2%	x	2.1%	x	7%	5%
- COc1ccc(F)cc1S(=O)(=O)N1CCC(C(N)=O)CC1
→ -2%	-15%	-1%	-1%	6.2%	2%	0%	-5%[46.1 µM]
- CC(C)(C)c1ccc(C(=O)NCC(=O)OCC(=O)Nc2nc(-c3ccc(F)cc3)cs2)cc1
→ x	11%	1%	-5%	x	2%	x	u
- Cc1cccc(C(=O)Nc2ccc(Oc3cnccn3)cc2)c1
→ 0%	x	0%	1%	x	4%	x	x
- Cc1ccc2nc(NC(=O)c3ccc4c(c3)OCO4)sc2c1
→ 15%	-21%	-2%	-8%	3.0%	x	u	-8%
- CC(=O)c1c(C)[nH]c(C(=O)OCCOc2ccccc2)c1C
→ x	u	-1%	-2%	x	-81%	x	u
- O=C(NC1CC(=O)N(c2ccc(F)cc2)C1)N1CCN(C(=O)c2ccco2)CC1 (centres undefined)
→ x	15%	-3%	-1%	x	-18%	x	23%
- Clc1ncnc2scc(C3COc4ccccc4O3)c12 (centres undefined)
→ -50%	-2%	-87%	-5%	-6.4%	4%	-27%	-6%
- O=C1NC[C@@H](Cc2cccc3ccccc23)N(CC2CCCCC2)C1=O
→ -8%	x	1%	2%	x	9%	x	x
- CCCc1cc(C(=O)N2CCN(c3ccccc3C)CC2)cs1
→ -52%	-7%	-20%	6%	-13%	8%	-4%	-13%
- CCOC(=O)Cc1csc(SCC(=O)c2c(N)n(CC(C)C)c(=O)n(C)c2=O)n1
→ -10%	u	9%	13%	-0.7%	11µM*	2%	u
- CC(=O)Oc1ccc(C(=O)Nc2ccccc2C(=O)N2CCCC2)cc1
→ 3%	27%[46.1 µM]	x	1%	x	-15%	x	u
- O=C(NC(=S)Nc1cccc(NC(=O)c2ccc(Cl)cc2Cl)c1)c1cccs1
→ u	-2%	-7%	-15%	-4.1%	-7%	u	1%
- CC(=O)Nc1ccc(NC(=O)CSc2nnnn2C2CCCCC2)cc1
→ x	9%	-1%	-8%	x	-14%	x	19%
- Cc1cc(C)c(-c2cc(C(F)(F)F)no2)c(=O)[nH]1
→ 1%&-118%	-31%[14.3 µM]	-8%	16%	-1.1%	4%	1%	u
- O=C(CN1C(=O)c2ccccc2S1(=O)=O)N1CCc2ccccc2C1
→ -5%	u	x	-1%	1.4%	-5%	1%	u
- Cc1nnc(SCC(=O)Nc2nnc(-c3ccccc3)o2)s1
→ x	3%	x	-20%	x	-19%	x	-8%
- CCOc1ccc(CCNC(=O)c2cccc(Nc3nc4ccccc4nc3-n3nc(C)cc3C)c2)cc1OCC
→ x	-1%[46.1 µM]	x	x	-1.4%	-13%	-8%	4%[46.1 µM]
- CCOc1ccc(-c2nc(C#N)c(N3CCN(CC)CC3)o2)cc1
→ -8%	-1%	3%	-6%	-4.0%	-26%	1%	11%&11%
- CCCC1CCC(=NNC(=O)CNc2ccc(OC)cc2)CC1 (centres undefined)
→ -2%	-2%	-18%	-14%	-1.6%	-10%	1%	9%
- C[N+](C)(CC#N)C/C=C\c1ccccc1
→ 6%	-1%[46.1 µM]	-1%	5%	x	2%	x	18%[46.1 µM]
- O=C1C(Cl)=C(NCC2CCCO2)C(=O)N1c1cccc(Cl)c1Cl (centres undefined)
→ -3%	6%	1%	-16%	-7.2%	-26%	-4%	4%
- CC1(c2ccccc2)CC(c2ccccc2)=Nc2nonc2N1 (centres undefined)
→ 7%	-10%	-2%	3%	-1.7%	-15%	-16%	2%
- Cc1ccc(NC(=O)c2ccc(CSc3nccc(C)n3)cc2)cc1
→ -68%	u	-2%	31%	2.1%	-8%	4%	u
- Cc1ccc(S(=O)(=O)NCC2CCC(C(=O)NC3CCCCC3)CC2)cc1 (centres undefined)
→ 1%	-12%[46.1 µM]	14%	10%	x	-5%	x	u
- CCCc1[nH]nc2c1C1(C(=O)N(Cc3ccccc3)c3ccccc31)C(C(=O)OC)=C(N)O2 (centres undefined)
→ -11%	-1%	3%	10%	-4.0%	u	25%	u
- CN(Cc1ccccc1)C(=O)COC(=O)CCC(=O)c1ccc(F)cc1
→ x	17%	0%	9%	x	0%	x	5%
- CCOC(=O)C(NC(=O)N1CCCCC1)(c1ccccc1)C(F)(F)F (centres undefined)
→ -12%	12%	3%	10%	-3.8%	8%	4%	7%
- O=C1c2cccc(OCC(=O)N3N=C(c4cccs4)CC3c3ccc(F)cc3)c2CCN1Cc1ccccc1 (centres undefined)
→ 5µM*	-21%	7%	x	-7.2%	-13%	13µM*	x
- Cc1cc(C)nc(-n2nc(C)c3c(=O)[nH]c(C(F)(F)F)nc32)n1
→ 1%	0%	4%	31%	0.3%	-3%	-1%	2%
- Cc1ccc(NC(=O)c2c(C)oc3ccc(O)c(CN4CCCCCC4)c23)c(C)c1
→ x	u	x	x	-4.1%	0%	u	3.5µM*
- CCNC(=O)CN(c1ccc(Oc2ccccc2)cc1)S(=O)(=O)c1ccccc1
→ 6%	u	5%	-14%	x	-19%	x	0%
- COc1ccc(-c2nnn(CC(=O)N(C3CCCCC3)C(C)C(=O)NC3CCCC3)n2)cc1OC (centres undefined)
→ -8%	0%	-1%	-4%	-1.3%	6%	u	1%&1%
- CC(=O)Oc1ccc(C(=O)Nc2cccc(NC(=O)c3ccco3)c2)cc1
→ 4%	-26%	-1%	-3%	x	4%	x	-8%
- COc1ccc(Cn2nnc(C(=O)Nc3cc(OC)ccc3OC)c2N)cc1
→ x	11%[46.1 µM]	x	x	-6.5%	6%	4%	-8%[46.1 µM]
- Cc1ccc(S(=O)(=O)Nc2nc3n(n2)C(c2ccc(Cl)cc2)CC(=O)N3)cc1 (centres undefined)
→ -3%	1%	3%	20%	-2.8%	-14%	-4%	-17%
- CCn1c(CSc2nc3ccccc3n2C)nc2ccccc21
→ -81%	-5%	-2%	-9%	2.7%	-15%	-2%	-21%
- O=C(CSc1nc(=O)n(Cc2ccncc2)c2c1CCC2)Nc1cccc(F)c1
→ x	2%[46.1 µM]	x	x	-2.7%	u	1%	x
- COCc1cc(CNC(=O)C2CCC(=O)N(Cc3ccccc3OC)C2)[nH]n1 (centres undefined)
→ 3%	-1%[46.1 µM]	-2%	10%	x	24%	x	-12%[46.1 µM]
- CCN(CC(=O)NCc1ccc(F)cc1)CC(=O)Nc1ccc(Br)cc1F
→ x	8%[46.1 µM]	6%	1%	x	-6%	x	u
- O=C(Nc1ccc(S(=O)(=O)Nc2ncccn2)cc1)c1ccco1
→ 5%	-6%	16%	-3%	-3.8%	-11%	-5%	-4%
- Cc1ccc(NC(=S)Nc2ccc(OC(F)F)c(Cl)c2)cc1Cl
→ -37%	-29%	-27%	x	-5.5%	-17%	-17%	u
- O=C(Nc1ccccc1)OCC1CCCO1 (centres undefined)
→ x	25%[46.1 µM]	x	5%	x	29%	x	u
- CCOC(=O)Cn1c(=N)n(CCOc2ccc(OC)cc2)c2ccccc21
→ 3%	-11%[46.1 µM]	20%	1%	-4.0%&-1.3%	-7%&-6%	-9%&11%	u
- NC(=O)[C@@H]1CCCN1C(=O)c1cc(COc2ccc(F)cc2F)on1
→ 10%	x	u	3%	x	37%[activator]	x	x
- Cc1cccc(NC(=O)c2ccc(Cn3cc(C(F)(F)F)ccc3=O)cc2)c1
→ -3%	-4%	-9%	13%	-1.9%	-20%	-7%	u
- O=C(O)C1CCC(Cn2c(SCc3cc(=O)n4cc(Br)ccc4n3)nc3ccsc3c2=O)CC1 (centres undefined)
→ -2%	-2%	0%	-1%	x	-27%	x	-13%[46.1 µM]
- Cc1ccccc1NC(=O)CSc1nc2ccc(Nc3nc(N4CCOCC4)nc(N4CCOCC4)n3)cc2s1
→ -9%	-16%	-3%	1%	x	-21%	x	u
- O=C(NC1CCCC1)C(c1ccc(Cl)cc1)N1CCc2ccccc21 (centres undefined)
→ -2%	x	4%	-10%	2.9%	-13%	-4%	x
- Cc1ccc(-c2nc3ccccc3[nH]2)cc1NC(=S)NC(=O)c1ccccc1Br
→ -122%	u	-28%	-15%	3.1%	u	u	u
- O=P(O)(CCCCP(=O)(O)CCc1ccccc1)CCc1ccccc1
→ -6%	x	5%	x	5.4%	x	-6%	-3%
- COc1cc(C2C(C(=O)Nc3ccccc3OC)=C(C)Nc3ncnn32)ccc1O (centres undefined)
→ 3%	x	-8%	1%	0.4%	33%[activator]	-9%	x
- O=C(O)CCc1ccc(-c2ccc(Br)cc2)n1-c1ccc(O)cc1
→ 1%	-2%[46.1 µM]	-2%	-19%	x	8%	x	6%[46.1 µM]
- NC(=O)C1CCN(S(=O)(=O)c2ccc3c(c2)OCCO3)CC1
→ -1%	2%	0%	0%	x	11%	x	5%
- Cc1ccsc1C1NC(=O)c2c(sc3c2CCN(C)C3)N1 (centres undefined)
→ u	x	4%	-19%	-14%	23%	-8%	-7%
- COc1ccc(N(C(=O)CCl)C(C)(C(=O)Nc2c(C)cccc2C)c2ccccn2)cc1 (centres undefined)
→ 10%	3%	-3%	-11%	-1.2%	-26%	4%	u
- COc1ccc(C(=O)NCc2cccs2)cc1S(=O)(=O)N1CCOCC1
→ x	-20%	0%	5%	x	33%[activator]	x	u

This is a random part of the collection; any-hit rate near 4.7%.
